KCNQ2 block: KCNQ2 potassium channel inhibitors, primary screen, cell-based, CHO-K1, FluxOR thallium flux, B-score (AID 2156) | 20 min; active compounds read low; only compounds with negative scores are shown here; some inactives read as strong as hits | B-score at 10 µM | 310,000 compounds, 1.1% hits;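 active = fluorescence ratio B-score at most minus 3 library SDs, with starting brightness B-score within 2 library SDs, cut at about -5.5 in these data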
Target sequence (O88943 whole entry, looked up): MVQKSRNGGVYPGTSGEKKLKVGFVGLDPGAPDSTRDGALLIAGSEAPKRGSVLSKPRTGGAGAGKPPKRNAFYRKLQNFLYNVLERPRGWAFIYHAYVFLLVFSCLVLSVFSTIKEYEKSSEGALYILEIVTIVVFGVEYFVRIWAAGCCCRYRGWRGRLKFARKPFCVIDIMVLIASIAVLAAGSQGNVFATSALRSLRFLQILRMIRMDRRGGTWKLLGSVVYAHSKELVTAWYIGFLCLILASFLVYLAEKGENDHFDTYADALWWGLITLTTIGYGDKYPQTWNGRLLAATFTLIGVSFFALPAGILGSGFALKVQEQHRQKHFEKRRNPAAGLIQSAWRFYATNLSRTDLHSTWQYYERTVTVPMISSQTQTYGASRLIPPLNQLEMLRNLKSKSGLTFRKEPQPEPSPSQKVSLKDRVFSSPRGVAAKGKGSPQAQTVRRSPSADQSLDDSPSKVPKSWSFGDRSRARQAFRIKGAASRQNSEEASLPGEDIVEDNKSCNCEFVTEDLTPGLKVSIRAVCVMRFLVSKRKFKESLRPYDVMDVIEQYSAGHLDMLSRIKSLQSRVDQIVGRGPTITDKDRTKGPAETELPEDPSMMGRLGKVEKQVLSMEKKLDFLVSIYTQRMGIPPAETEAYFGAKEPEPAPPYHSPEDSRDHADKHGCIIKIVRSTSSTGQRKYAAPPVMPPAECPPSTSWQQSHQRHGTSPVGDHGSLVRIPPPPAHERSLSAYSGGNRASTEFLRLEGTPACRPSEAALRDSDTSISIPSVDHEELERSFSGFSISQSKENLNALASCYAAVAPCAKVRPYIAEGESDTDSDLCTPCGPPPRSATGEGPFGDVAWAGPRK
KCNQ2 block baseline: recorded beside KCNQ2 block, whose call it bears; B-score; measured here: initial fluorescence intensity artifact check;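 brightness before thallium and not channel activity; 0 = typical well and far values either way flag optical interference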
* = called active by the depositor; i = inactive. The list is partial, so the mix of outcomes need not match the whole.

KCNQ2 block baseline | KCNQ2 block | smiles
-1.46 | i | O=C(COc1ccc2c(c1)CCC2)N1CCN(c2cccc(C(F)(F)F)c2)CC1
-1.11 | i | CN=CC1=C(O)CC(C)(C)CC1=O
0.93 | i | Cc1ccc(N2C(=O)[C@@H]3[C@H](C2=O)C2CCCN2[C@@H]3C(=O)c2ccccc2)cc1 (stereo partly specified)
0.97 | i | CC(C)(C)c1nc(SCC(=O)NNC(=O)c2ccccc2)c2ccccc2n1
0.73 | i | CC1=CC(=O)C(C(C)C)=C/C1=N/OC(=O)c1cccc([N+](=O)[O-])c1
1.43 | i | COc1ccccc1C1C2=C(N=C3SCC(=O)N31)c1ccccc1CC2 (stereo unspecified)
2.19 | i | O=C1CC(c2ccsc2)c2cc3c(cc2N1)OCCO3 (stereo unspecified)
2.66 | i | CC1C(=O)CCCCCCCCCC2C1(N1CCOCC1)CS2(=O)=O (stereo unspecified)
1.3 | i | N#Cc1ccc(/C=C2\CCCCn3c2nc2cc(C(=O)O)ccc2c3=O)cc1
0.08 | i | CSc1c(-c2ccccn2)c(N)nn1C(=O)C1CCC1
1.09 | i | CC(C)(C)OC(=O)N[C@H](Cc1ccccc1)C(=O)N1CCC[C@@H]1C(=O)O
-2.36 | i | C=CCNC(=O)C1CCC(C(=O)NCC=C)CC1 (stereo unspecified)
-0.76 | i | COc1ccc(C2CC(c3ccccc3)=NN2C(=O)CSc2nnnn2-c2cccc(C)c2)cc1 (stereo unspecified)
-0.79 | i | COc1cccc(C(C(=O)NC2CCCCC2)N(CCN2CCOCC2)C(=O)C2COc3ccccc3O2)c1 (stereo unspecified)
-3.6 | i | COc1ccc(CCNC(=O)CC2SC(=NCc3ccccc3OC)NC2=O)cc1 (stereo unspecified)
0.85 | i | COc1ccc(/C=C(\NC(=O)c2ccc(C)cc2)C(=O)NCCCn2ccnc2)cc1OC
0.48 | i | COc1ccc(NC(=O)CN(c2cc(C)cc(C)c2)S(=O)(=O)c2c(C)noc2C)cc1
-1.08 | i | CCC(=O)Nc1cccc(-c2nnc(-c3ccccc3)o2)c1
0.81 | i | CN(C)c1ccc2c3c(ccc(N(C)C)c13)COC2
0.06 | i | O=C(CSc1nc2ccccc2s1)NC1CCCc2ccccc21 (stereo unspecified)
-0.02 | i | Cc1noc(C)c1C(=O)N1CCC(CO)(Cc2ccccc2)CC1
-0.43 | i | O=C(O)c1ccc(/C=C2\COc3ccccc3C2=O)cc1
1.97 | i | CSc1nc(C)c(Cc2ccccc2)c(=O)[nH]1
-0.66 | i | O=P(OC1CCCCC1)(OC1CCCCC1)C(O)c1ccc(Cl)cc1Cl (stereo unspecified)
1.09 | i | CS(=O)(=O)N(CC(=O)N1CCN(c2cccc(Cl)c2)CC1)c1cccc(F)c1
0.57 | i | O=C(Nc1nc2c(s1)CN(Cc1ccccc1)CC2)c1cccc(S(=O)(=O)N2CCc3ccccc32)c1
-0.08 | i | O=C1NCC(COc2ccc([N+](=O)[O-])cc2)O1 (stereo unspecified)
0.7 | i | COCCOC(=O)c1c(NC(=O)COC(=O)Cc2cccc(OC)c2)sc(C(N)=O)c1C
-0.67 | i | CSc1cccc(NC(=O)CCCOc2ccc(Cl)cc2C)c1
-0.01 | i | Cc1cc(NC(=O)CSc2n[nH]c(CC(C)C)n2)no1
3.55 | i | CC(=O)c1sc2nc(-c3cccs3)cc(C(F)(F)F)c2c1N
0.12 | i | O=C(CCc1ccccc1Cl)Nc1cccc(S(=O)(=O)N2CCCC2)c1
-0.89 | i | CCn1c(C)nc2cc(C(=O)NNS(=O)(=O)c3c(F)cc(F)c(Cl)c3F)ccc21
-0.24 | i | O=C(CNC(=O)c1ccccc1)N/N=C/C=C/c1ccccc1
-0.87 | i | COC(=O)CC1C(=O)NCCN1C(=O)CSc1nnnn1-c1ccc(Cl)cc1 (stereo unspecified)
1.52 | i | COc1ccc(Oc2ncc(CN3CCN(c4ccccc4)CC3)s2)cc1
0.98 | i | COc1ccc(N(CC(=O)NCCSC2CCCCC2)S(=O)(=O)c2ccccc2)cc1OC
0.74 | i | CN1CCN(C(=O)c2ccc3c(c2)N(Cc2cccc(Cl)c2)C(=O)c2ccccc2S3=O)CC1 (stereo unspecified)
1.52 | i | O=C(NCC1CCCO1)c1cc(-c2ccco2)nc2ccccc12 (stereo unspecified)
1.05 | i | CS(=O)(=O)c1cnc(-c2ccccc2)nc1Oc1ccc(F)cc1
1.03 | i | COc1cccc(/C=N/NC(=O)c2ccccc2N(Cc2ccccc2)S(=O)(=O)c2ccccc2)c1OC
-0.84 | i | COc1ccc(N2CCN(C(=O)c3oc4ccccc4c3C)CC2)cc1
1.92 | i | COCCCNC(=O)CN(c1cc(OC)ccc1OC)S(=O)(=O)c1ccccc1
0.11* | -6.51* | CCN(CC)C(=O)/C(=C\c1ccc2c(c1)OCO2)NC(=O)c1ccc(Br)cc1
2.96 | i | COCc1cc(C)nc(N)c1C#N
-0.92 | i | Cc1cc(C(=O)OCC(=O)NC2CCCCC2)c(C)o1
-0.7 | i | O=C1c2ccccc2C(=O)N1CCCSc1nc2ccccc2o1
-0.5 | i | COc1cc(C(=O)NCC(=O)N/N=C/c2ccc(OC(=O)c3ccco3)cc2)cc(OC)c1OC
0.06 | i | Cc1ccc2nc(-c3cccc(NC(=O)c4ccco4)c3)[nH]c2c1
-3.25 | i | COc1cccc(C2C3=C(N=c4s/c(=C\c5cccc(O)c5)c(=O)n42)c2ccccc2CC3)c1OC (stereo unspecified)
1.2 | i | CC1Cc2ccccc2N1S(=O)(=O)c1ccc(Cl)nc1 (stereo unspecified)
-0.26 | i | COc1cc2[nH]c(C(=O)N3CCc4ccccc4C3)cc2c(OC)c1OC
-0.82 | i | O=C(CN1C(=O)NC2(CCCCC2)C1=O)Nc1ccccc1Cl
-0.05 | i | Cc1nc2c(C)cccc2c(SC(=N)N)c1CC=C(Cl)Cl
0.25 | i | Cc1cc(N2C3CCC2CC(O)(c2ccc(F)cc2)C3)nc(-c2ccccc2)n1 (stereo unspecified)
1.83 | i | COc1cc(/C=N/Nc2cc(C)nc(NS(=O)(=O)c3ccc(C)cc3)n2)ccc1O
0.12 | i | CC(=O)c1cc2c(cc1N)OCO2
0.78 | i | COC(=O)c1cc(COc2ccc3c(c2)oc(=O)c2ccccc23)c(C)o1
1.41 | i | O=C(COc1ccccc1Cl)NC(=S)Nc1cccc(NC(=O)c2ccccc2Cl)c1
0.68 | i | CCOCCn1c(-c2ccc(OC)cc2)nc2ccccc21

Rewritten with two lines to a compound: entries from further up
The line under a structure holds: KCNQ2 block baseline | KCNQ2 block
> Cc1cc(C(=O)OCC(=O)NC2CCCCC2)c(C)o1
  -0.92 | i
> O=C1c2ccccc2C(=O)N1CCCSc1nc2ccccc2o1
  -0.7 | i
> COc1cc(C(=O)NCC(=O)N/N=C/c2ccc(OC(=O)c3ccco3)cc2)cc(OC)c1OC
  -0.5 | i
> Cc1ccc2nc(-c3cccc(NC(=O)c4ccco4)c3)[nH]c2c1
  0.06 | i
> COc1cccc(C2C3=C(N=c4s/c(=C\c5cccc(O)c5)c(=O)n42)c2ccccc2CC3)c1OC (stereo unspecified)
  -3.25 | i
> CC1Cc2ccccc2N1S(=O)(=O)c1ccc(Cl)nc1 (stereo unspecified)
  1.2 | i
> COc1cc2[nH]c(C(=O)N3CCc4ccccc4C3)cc2c(OC)c1OC
  -0.26 | i

Additional results follow:
KCNQ2 block baseline | KCNQ2 block | smiles
0.05 | i | CCOc1ccc(N2C(=O)CC(Sc3nnnn3-c3ccccc3)C2=O)cc1 (stereo unspecified)
-0.63 | i | CC(Cl)C(=O)NNc1cccc(Cl)n1 (stereo unspecified)
-2.26 | i | O=C(NCc1ccco1)C(=O)NCC1OCCN1S(=O)(=O)c1cc(F)ccc1F (stereo unspecified)
-3.11 | i | CCN1c2ccccc2-c2nc3ccccc3n2C1c1ccccn1 (stereo unspecified)
1.62 | i | Cc1cc(=O)oc2c(CN3CCCC3)c(O)c(Cl)cc12
0.01 | i | CCCCNC(=O)c1ccc(CNS(=O)(=O)c2ccc(Br)cc2)cc1
0.01 | i | O=C(Cc1ccc(F)cc1)Nc1nccs1
0.89 | i | COCCSc1ccccc1C(=O)N1CCN(Cc2ccc3c(c2)OCO3)CC1
1.64 | i | Cc1ccccc1C(=O)NC1CCN(C(=O)N(c2ccccc2)c2ccccc2)CC1
0.19 | i | Fc1ccc(-[n+]2nc(Nc3ccccc3)sc2-c2cccc(Cl)c2Cl)cc1
0.08 | i | Cc1ccc(/C=N/NC(=O)c2cc(-c3ccc(C)o3)[nH]n2)cc1
0.12 | i | O=C(c1cc2c(ccc3ccccc32)oc1=O)N1CCN(CCO)CC1
-0.72 | i | CCCCOC(=O)CNc1nnc(SCC(=O)OCC)[nH]c1=O
-0.44 | i | C1CCN(c2c3c(nc4nnnn24)CCCC3)CC1
1.06 | i | Cc1ccccc1N=C1NN=C(c2ccccc2F)CS1
0.53 | i | Cc1onc(-c2c(Cl)cccc2Cl)c1NC(=O)NNc1ccccc1
3.28 | i | CCc1nnc(NC(=O)c2sc3nc4cc(C)ccc4cc3c2N)s1
1.7 | i | COC(=O)/C(=N/Nc1ccccc1Cl)Sc1nnc(C(O)c2ccccc2)n1-c1ccccc1 (stereo unspecified)
-0.2 | i | CCCN(CCC)Cc1c(C(=O)N/N=C/c2c[nH]c3ccccc23)nnn1-c1nonc1N
-0.68 | i | COc1cc(C2CC(=O)Oc3c(C(CCN4CCOCC4)c4ccc(N(C)C)cc4)c(OC)cc(OC)c32)cc(OC)c1OC (stereo unspecified)
-0.63 | i | CC1CC(C)(C)CC2(C1)NC(=O)N(CC(=O)NC1CCCc3ccccc31)C2=O (stereo unspecified)
0.95 | i | Cc1ccc(S(=O)(=O)c2cc3c(=O)n4cccc(C)c4nc3n(Cc3ccncc3)c2=N)cc1
1.81 | i | Cc1oc(-c2ccoc2)nc1CN(Cc1ccccc1)CC1CC1
0.84 | i | CCOC(=O)C(Cc1cc(C(C)=O)ccc1OCC)C(=O)OCC
-0.53 | i | CC(=O)c1ccc(NC(=O)c2ccccc2-c2ccccc2C(=O)O)cc1
2.42 | i | COc1ccc(/C=C2/C(=O)N(CC3CCCO3)C(=S)N2C)c(OC)c1 (stereo unspecified)
-0.01 | i | Cc1cc2ccccc2n1CCNC(=O)c1ccc(S(=O)(=O)N2CCCCC2)cc1
0.83 | i | O=C(/C=C/c1cccc(F)c1)Nc1ccc(S(=O)(=O)Nc2ncccn2)cc1
-1.24 | i | COc1ccc(OC)c(CCNC(=O)C2CCN(c3nnc(-n4cccc4)s3)CC2)c1
-0.57 | i | Nc1ncnc2nc(Sc3ccc(Cl)cc3)[nH]c12

Full records from above. Order of values: KCNQ2 block baseline	KCNQ2 block
CCc1nnc(NC(=O)c2sc3nc4cc(C)ccc4cc3c2N)s1 is entered as 3.28	i
COc1ccc(/C=C2/C(=O)N(CC3CCCO3)C(=S)N2C)c(OC)c1 (stereo unspecified) is entered as 2.42	i
Cc1onc(-c2c(Cl)cccc2Cl)c1NC(=O)NNc1ccccc1 is entered as 0.53	i
Cc1ccc(S(=O)(=O)c2cc3c(=O)n4cccc(C)c4nc3n(Cc3ccncc3)c2=N)cc1 is entered as 0.95	i

Next section
KCNQ2 block baseline | KCNQ2 block | smiles
0.05 | i | Cn1c(C(=O)OCC(=O)NCCc2ccccc2)cc2sccc21
-1.11 | i | CSc1ccc(CN2CCN(S(=O)(=O)Cc3ccccc3)CC2)cc1
0.74 | i | Cc1occc1C(=O)NCc1cccc(CNC(=O)c2ccoc2C)c1
1.05 | i | Cc1ccc2cc(CN(Cc3ccco3)C(=O)C3CCCCC3)c(=O)[nH]c2c1C
-0.87 | i | OC(CN1CCN(c2cccc(C(F)(F)F)c2)CC1)c1c[nH]c2ccccc12 (stereo unspecified)
-0.06 | i | CCCCn1c(N)c(N(CCC(C)C)C(=O)c2ccc(COc3ccccc3)o2)c(=O)[nH]c1=O
-1.83 | i | O=c1c2ccccc2nc(/C=C/c2cccc([N+](=O)[O-])c2)n1CCCO
-0.46 | i | CC1Oc2ccccc2N(CC(=O)NC2CCCCC2)C1=O (stereo unspecified)
0.76 | i | CS(=O)(=O)N(CC(=O)N1CCN(c2ccccc2)CC1)Cc1ccc(Cl)cc1
0.6 | i | CCOC(=O)C1(Cc2ccccc2Cl)CCN(C(=O)CN2CCOC2=O)CC1
1.58 | i | CC(C)NC(=O)COc1ccc2c(c1)C(=O)CC(C)(C)O2
0.86 | i | COc1ccc(NC(=O)C2CCCN(S(=O)(=O)c3cccnc3)C2)c(OC)c1 (stereo unspecified)
2.85 | i | O=C(O)c1cc(-c2ccco2)[nH]n1
-1.86 | i | CCOC(=O)c1sc(NC(=O)CSc2nnc(Cc3ccccc3)o2)c(C#N)c1C
5.02 | i | COc1cc(-c2nc(C)c(C(C)=O)n2O)ccc1OCC(=O)Nc1ccc(Cl)cc1
-0.12 | i | O=C(CCNC(=O)c1ccc([N+](=O)[O-])cc1)NCCC1=CCCCC1
0.39 | i | CCOc1ccc(C(=O)NCC(=O)N2CCC3CCCCC3C2)cc1OCC (stereo unspecified)
1.17 | i | CC(NC(=O)Cn1cc(C(F)(F)F)cc(Cl)c1=O)c1ccccc1 (stereo unspecified)
0.13 | i | CCC(=O)N1CCN(c2ccccc2NC(=S)NC(=O)c2cccc([N+](=O)[O-])c2)CC1
0.47 | i | CCC1(C)Cc2c(sc3c2c(=O)n(C)c2nnc(SCc4ccc5c(c4)OCO5)n32)CO1 (stereo unspecified)
0.92 | i | CN(CC(=O)NC1CCCc2ccccc21)S(=O)(=O)c1cccs1 (stereo unspecified)
0.76 | i | O=C(Nc1ccc2c(c1)OCO2)C1CCN(Cc2cnn(-c3ccccc3)c2-n2cccc2)CC1
1.99 | i | Oc1ccc2ccccc2c1C=Nc1ccccc1
1.53 | i | Cn1c(-c2cccc(Br)c2)n[nH]c1=O
2.44 | i | Cc1ccc(-n2c(SCC(=O)N3CCCC3)nc3c(c2=O)SCC3)cc1
-0.82 | i | CN1CCN(/C=C(\C#N)S(=O)(=O)c2ccc(Cl)cc2)CC1
0.82 | i | Cc1cccc(N(CC(=O)NC2CCCCC2)C(=O)c2ccc(C)s2)c1
